# Screening data (PubChem)
# HCMV NEC inh: inhibitors of HCMV UL50-UL53 interaction, biochemical, HTRF; hit rate 0.15% among 190,000; HCMV UL50-UL53 nuclear egress complex (human cytomegalovirus); inhibition, % (no concentration beside the values); normalized percent inhibition;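 active means both replicates at 50% or more, plus weaker picks with an unusually low signal ratio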;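 further: stock transfer was 100 nL into about 20 µL; 0% = negative control wells and 100% = wells with untagged competitor protein; inactives centre near -12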
# GIV-Gai inh: inhibitors of GIV peptide binding to Galpha-i3, primary screen, biochemical, fluorescence polarization, FITC-GIV GBA peptide, rat Galphai3 | 90 min; hits give low values; scaled: aluminum fluoride 0%, vehicle 100% | percent of control (FP), % (no concentration beside the values) | hit rate 0.42% among 210,000 | AID 1224905, 2016;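 active means replicate mean at 85% of control or lower, very high polarization wells dropped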;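 further: wells of about 15 µL received 100 nL stock; the first replicate is given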
# Target sequence (P08753 whole entry, looked up): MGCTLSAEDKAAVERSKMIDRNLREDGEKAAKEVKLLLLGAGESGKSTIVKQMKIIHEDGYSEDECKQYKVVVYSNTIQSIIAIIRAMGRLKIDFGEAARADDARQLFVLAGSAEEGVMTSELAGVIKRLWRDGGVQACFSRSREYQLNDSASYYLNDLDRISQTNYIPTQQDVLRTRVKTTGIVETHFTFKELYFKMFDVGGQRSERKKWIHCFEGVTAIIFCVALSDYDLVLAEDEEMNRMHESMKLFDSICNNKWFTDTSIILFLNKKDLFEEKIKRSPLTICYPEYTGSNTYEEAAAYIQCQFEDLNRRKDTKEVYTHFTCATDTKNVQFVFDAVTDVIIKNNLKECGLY
# Sa growth 42C: S. aureus growth inhibition at 42 and 30 °C, primary screen, LtaS inhibitor project, RN4220, two temperatures; OD600, 20 h, 42 °C; hits give low values; relative growth, % (concentration not given with the values); hit rate 0.53% among 170,000;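 active means growth at 42 °C up to 50% and 20 or more points under that at 30 °C, or under 10% at both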;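 further: 300 nL library stock went into each well; scaled to the means of positive and negative controls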
# Sa growth 42C second temp: recorded beside Sa growth 42C, whose call it bears; relative growth, %; measured here: growth at 30 °C;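 optical density after 20 h as mean of two plates; 100% = untreated growth and lower means inhibition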
# Starred values were filed as active, the others as inactive; . = not tested or not shown; & = joins results of further samples. An unsorted share of the library. About 0.85% of those tested had a hit in this group.
SMILES,HCMV NEC inh,GIV-Gai inh,Sa growth 42C,Sa growth 42C second temp
N#Cc1cccc(NC(=O)C2CCN(c3ncccn3)CC2)c1,-36.4,96.8,91.2,77.3
CN(C)S(=O)(=O)N(CC(=O)NCCSc1ccccc1)c1ccccc1,-20.3,103.6,76.2,83.8
CCCn1c(SCC(N)=O)nnc1C1CC1,-11.1,108.6,100.2,87.0
CC(N)c1ccc2c(c1)CCC2 (stereo not given),-32.0,104.9,77.0,86.7
O=C(O)CC(CC(=O)Nc1nncs1)c1ccccc1 (stereo not given),-6.0,.,89.7,85.8
COc1ccc(C(=O)Nc2ccc3oc(-c4cccc5c(Br)cccc45)nc3c2)cc1,-9.5,103.1,102.3,87.9
Nc1nc2c3cccc4cccc(c(=O)n2n1)c43,-119.5,79.7*,101.5,93.9
O=C(NCc1nnc(SCC(=O)N2CCc3ccccc32)o1)c1ccccc1,-8.5,105.7,93.6,92.2
O=C(O)/C=C\C(=O)NCc1cccs1,-14.3,99.3,95.0,85.1
O=c1c[n+]([O-])c2ccccc2n1OCc1c(F)cccc1F,-106.3,109.1,117.0,90.8
Cc1ccc2oc(=O)c3cc(C(=O)N4CCCCC4)sc3c2c1,.,104.3,90.8,85.0
O=c1cc(CN2CCCCC2)c2cc(O)ccc2o1,-80.1,105.8,89.0,79.4
COCCNC(=O)N1CCN(Cc2nc3cc(Cl)ccc3o2)CC1,-14.0,104.0,.,.
CCCS(=O)(=O)N1CC(=O)N(c2ccc(C)c(Cl)c2)C(C)(C(=O)NC2CCCCCC2)C1 (stereo not given),.,107.0,106.2,103.8
Cc1ccc(NC(=O)Cn2cc(S(=O)(=O)c3ccc(C(C)C)cc3)c(=O)c3ccccc32)cc1,-10.7,96.5,.,.
Cc1cc(C(=O)NCCCn2ccnc2)cs1,-7.4,107.9,123.3,100.5
O=C(Nc1nccs1)c1ccc(N2C(=O)CCS2(=O)=O)cc1Cl,-26.6,107.1,.,.
COc1ccc(S(=O)(=O)N2CCN(c3cccc(Cl)c3C)CC2)cc1OC,-12.2,98.0,101.0,85.8
O=C(NC(=S)Nc1ccc(O)c(-c2nc3ccccc3o2)c1)c1ccccc1,.,108.1,106.5,90.0
CCOc1nc2cnccc2n(Cc2ccc(C)cc2)c1=O,-34.8,106.7,98.7,83.9
Cc1ccc(Nc2oc(-c3ccc(C)cc3)nc2C#N)cc1,-14.6,104.7,102.1,101.7
Cc1cccc(C(=O)OCC(=O)N2c3ccccc3CC2C)c1O (stereo not given),-0.1,.,125.7,95.6
Cn1c(CN2CCCCC2)nc2ccccc21,-3.0&6.5,104.2&102.5,111.9,102.4
Cn1cnc(SCC(=O)N2c3ccccc3C(C)(c3ccccc3)CC2(C)C)n1 (stereo not given),10.2,111.8,.,.
CCC(C)c1ccc(NC(=O)N(C)C)cc1 (stereo not given),5.1,103.3,104.1,92.3
SMILES,HCMV NEC inh,GIV-Gai inh,Sa growth 42C,Sa growth 42C second temp
CCCCn1c(=N)n(CCCOc2ccc(F)cc2)c2ccccc21,-9.5,102.9,107.5,71.8
Cc1ccc(-n2ncc(C(=O)NC3CCCC3)c2C2CCN(C(=O)OC(C)(C)C)CC2)c(C)c1,.,101.6,80.3,92.0
O=C(c1cc(-c2ccccc2)nn1-c1ccccc1)N(C1CC1)C1CCS(=O)(=O)C1 (stereo not given),-16.9,.,97.8,92.5
N#Cc1c(N=CN2CCCCC2)nc2c(c1-c1ccccc1)CCCC2,-23.1,101.3,97.2,89.1
OC(CNCC1CCCO1)COc1ccc(-c2ccccc2)cc1 (stereo not given),-26.1,99.2,96.4,85.5
Cc1cccc(C(=O)N2CCN(Cc3ccncc3)CC2)c1,-15.8,102.3,.,.
Cc1nn(-c2ccccc2)c(-n2cccc2)c1C(=O)NCc1ccccc1Cl,0.4,99.9,90.9,99.7
Cc1nc2nc(C3CCCCC3)nn2c(C)c1CC(=O)N1CCCCC1,-1.1,102.7,.,.
Oc1ccc(C=NC2CCCCC2)cc1,2.5,103.3,101.8,111.8
Oc1ccc(Nc2nc3nonc3nc2Nc2ccc(O)cc2)cc1,-2.3,109.8,.,.
CC(C)=NOC(=O)c1cn(-c2ccccc2)nc1-c1cccs1,-10.0,.,95.9,86.1
COc1ccc(CCN2C(=O)N(c3ccccc3)C(=O)C2CC(=O)Nc2ccccc2)cc1 (stereo not given),-33.7,100.8,98.5,79.9
O=C(OCCN1CCOCC1)C1(c2ccccc2)CCCCC1,3.9&-21.0,94.7,.,.
Cc1nc(-c2ccc(C(=O)Nc3nccs3)cc2)no1,-33.7,106.7,.,.
Cc1ccccc1C(NC(N)=O)c1ccccc1 (stereo not given),-5.9,104.5,96.7,52.8
CCC1(C)NC(=O)NC1=O (stereo not given),-42.7,.,100.5,91.6
COc1ccc(OC)c(NC(=O)C(C)n2nc(C)c3c(C)n(-c4ccccc4)nc3c2=O)c1 (stereo not given),.,104.1,95.6,87.2
Cc1ccc(-c2nc(CS(=O)(=O)CC(=O)NC(C)CCc3ccccc3)c(C)o2)cc1 (stereo not given),-25.6,106.3,72.5,31.5
O=C1CCN(C(=O)CCCc2nc3ccccc3s2)CC1,-25.9,.,108.3,86.5
CCOC(=O)c1cc2c(=O)n3ccccc3nc2n(Cc2ccco2)c1=NC(=O)c1c(F)cccc1Cl,-62.1,109.7,108.6,77.7
CCOc1ccccc1NC(=S)N(C1CCCCC1)C(C)c1ccco1 (stereo not given),-9.1,98.0,92.0,75.1
OC1CSc2nc3ccccc3n21 (stereo not given),1.3,99.6,110.4,102.7
CCCN=C1CC(C)(C)CC(=O)/C1=C(\O)Cc1ccc(OCC)c(OCC)c1,6.4,.,97.0,100.1
O=C(CSc1nnc(-c2cc3ccccc3[nH]2)o1)Nc1nccs1,-14.5,109.3,.,.
O=C(CCCn1c(=O)c2ccccc2n(CC(=O)c2ccc(F)cc2)c1=O)NC1CCCC1,.,108.6,91.4,87.7

# Some of the entries so far, with bars between the fields.
compound | HCMV NEC inh | GIV-Gai inh | Sa growth 42C | Sa growth 42C second temp
CCCCn1c(=N)n(CCCOc2ccc(F)cc2)c2ccccc21 | -9.5 | 102.9 | 107.5 | 71.8
Cc1ccc(-n2ncc(C(=O)NC3CCCC3)c2C2CCN(C(=O)OC(C)(C)C)CC2)c(C)c1 | . | 101.6 | 80.3 | 92.0
O=C(c1cc(-c2ccccc2)nn1-c1ccccc1)N(C1CC1)C1CCS(=O)(=O)C1 (stereo not given) | -16.9 | . | 97.8 | 92.5
N#Cc1c(N=CN2CCCCC2)nc2c(c1-c1ccccc1)CCCC2 | -23.1 | 101.3 | 97.2 | 89.1
OC(CNCC1CCCO1)COc1ccc(-c2ccccc2)cc1 (stereo not given) | -26.1 | 99.2 | 96.4 | 85.5
Cc1cccc(C(=O)N2CCN(Cc3ccncc3)CC2)c1 | -15.8 | 102.3 | . | .
Cc1nn(-c2ccccc2)c(-n2cccc2)c1C(=O)NCc1ccccc1Cl | 0.4 | 99.9 | 90.9 | 99.7
Cc1nc2nc(C3CCCCC3)nn2c(C)c1CC(=O)N1CCCCC1 | -1.1 | 102.7 | . | .
Oc1ccc(C=NC2CCCCC2)cc1 | 2.5 | 103.3 | 101.8 | 111.8
Oc1ccc(Nc2nc3nonc3nc2Nc2ccc(O)cc2)cc1 | -2.3 | 109.8 | . | .
CC(C)=NOC(=O)c1cn(-c2ccccc2)nc1-c1cccs1 | -10.0 | . | 95.9 | 86.1
COc1ccc(CCN2C(=O)N(c3ccccc3)C(=O)C2CC(=O)Nc2ccccc2)cc1 (stereo not given) | -33.7 | 100.8 | 98.5 | 79.9
O=C(OCCN1CCOCC1)C1(c2ccccc2)CCCCC1 | 3.9&-21.0 | 94.7 | . | .

# Other records:
SMILES,HCMV NEC inh,GIV-Gai inh,Sa growth 42C,Sa growth 42C second temp
CC1CN(C(=O)COC(=O)COc2cc(Cl)c(Cl)cc2Cl)CC(C)O1 (stereo not given),-0.4,.,110.6,101.0
CCCCN(CC)CCCNC(=O)Cn1ncc2c3ccccc3n(Cc3ccc(F)cc3)c2c1=O,-12.0,98.7,116.1,83.2
CC(C)c1ccc(NCCNC2CCCCCC2)cc1,.,101.4,108.0,96.9
COc1cccc(NC(=O)C(Cc2ccccc2)NS(=O)(=O)c2ccc3c(c2)oc(=O)n3C)c1 (stereo not given),7.6,99.6,87.7,98.2
CC(C)(C)c1ccc(C(=O)NC2=NCCS2)cc1,14.0,.,99.9,101.6
CCCN1C(=O)C2CC(C)=C(C)CC2C1=O (stereo not given),9.4,105.0,110.3,94.0
O=C(CSc1nnc(CNc2ccccc2)o1)c1ccc2c(c1)OCCO2,-12.7,106.4,126.8,89.0
Cc1nc2cccnc2n1-c1ccc(CC(=O)N2CCc3ccccc32)cc1,-24.4,103.4,86.7,89.2
COc1cccc(S(=O)(=O)N(C)Cc2nc3cc(C(=O)N(C)C)ccc3n2C)c1,0.9,100.4,.,.
O=c1[nH]c(O)c(/C=C/N=Nc2ccccc2)c(=O)[nH]1,-15.6,106.1,97.2,91.6
COc1ccc(-c2coc3c(C)c4oc(=O)c5cc(OC)ccc5c4cc23)cc1,.,102.1,90.2,82.3
Brc1ccc2c(c1)C1CC(c3cccs3)=NN1C1(CCCC1)O2 (stereo not given),-24.5,190.9,.,.
CC(=O)OC1CCCCC1C1=CCCCC1 (stereo not given),-4.6,.,99.0,83.4
CCCNC(=O)COc1ccccc1OC,-9.7,100.6,106.2,106.9
Cc1oc(-c2ccc(C(=O)NCc3ccccc3Cl)cc2)nc1CN1CCc2ccccc21,.,105.8,104.4,92.4
CCS(=O)(=O)c1ccc(-c2ccc(NC(=O)CC3CCCC3)cc2)nn1,-14.8,102.5,.,.
CCn1cc(CN(Cc2ccccc2)C(=S)Nc2cc(C)ccc2C)c2ccccc21,.,97.9,91.7,84.4
O=C(O)c1ccccc1OCc1cn2ccccc2n1,3.4,.,78.3,91.8
Nc1nn2cc(-c3ccc(Cl)s3)nc2c2ccccc12,-18.3,.,114.4,86.3
CCOc1ccc(-c2cc3c(=O)n(CC(=O)Nc4c(C)cccc4C)ccn3n2)cc1,.,106.5,100.1,78.3
CC1CCCCN1c1nc(-c2ccccc2O)nc2ccccc12 (stereo not given),-12.7,.,114.1,97.7
CC(C)Oc1ccc(CNC(=O)Nc2ccc3c(c2)N(C)C(=O)c2ccccc2S3)cc1,16.6,103.2,117.1,77.0
c1ccc(-c2csc3ncnc(N4CCCCC4)c23)cc1,-19.9,.,82.2,89.8
O=C(Nc1cccc(C(F)(F)F)c1)c1ccc2nc[nH]c2c1,-2.4,101.1,99.0,65.2
Cc1noc(C)c1CS,-9.6,.,70.3,88.0
SMILES,HCMV NEC inh,GIV-Gai inh,Sa growth 42C,Sa growth 42C second temp
Cc1ccc(C)c(N2CCN(C(=O)CCC(=O)Nc3ccc4nc(N5CCCCC5)cc(C)c4c3)CC2)c1,-43.5,104.9,76.3,87.4
COC(=O)C1C(=O)NC(SCc2ccccc2)=C(C#N)C1c1ccccc1 (stereo not given),.,99.8,131.6,90.0
O=C1c2ccccc2S(=O)(=O)N1CC(O)COc1ccc([N+](=O)[O-])cc1 (stereo not given),-30.0,106.1,.,.
O=C(c1cccc2c1NC(c1ccc(Br)cc1)C1CC=CC21)N1CCOCC1 (stereo not given),-47.3,106.0,.,.
Cc1ccc(C)c(NC(=O)Cc2coc3ccc(C)cc23)c1,-31.3,99.9,.,.
CCC1Oc2ccccc2N(CC(=O)N2CC(C)CC(C)C2)C1=O (stereo not given),.,104.4,112.1,87.0
O=c1oc2ccccc2cc1-c1nc(-c2ccccc2)no1,.,112.2,84.5,98.3
CCN(CC)S(=O)(=O)c1ccc(Cl)c(C(=O)Oc2ccc(C)cc2-n2nc3ccccc3n2)c1,.,98.5,91.7,93.5
O=C(Cn1c(=O)n(Cc2nc(-c3ccccc3)no2)c(=O)c2ccccc21)Nc1cccc(Cl)c1,.,103.0,93.4,93.1
O=C(NCc1ccccc1)c1nnc(Cc2cccc(F)c2)o1,-14.1,99.9,131.6,95.5
CCOc1ccc(-c2cc3c(SCC(=O)c4ccc(OC)c(OC)c4)nccn3n2)cc1,-5.8,106.6,.,.
Cn1c2ccccc2c2cnn(CC(=O)N3CCc4ccccc4C3)c(=O)c21,8.8,108.6,111.7,98.8
CCOC(=O)N1CCC(NC2CCCCCC2)CC1,-4.6,98.9,96.5,103.9
COc1ccccc1Nc1nn2c(=O)c3ccccc3nc2s1,-15.7,99.6,91.8,93.3
CC(C)N1CSC(=S)N(C(C)C)C1,-66.2,104.5,110.0,82.8
CCCc1nn2c(=O)cc(COC(=O)c3ccccc3NC(=O)c3ccc(OCC)cc3)nc2s1,.,104.4,76.0,92.1
Cc1ccc(-c2nnc(Nc3ccc(Cl)cc3)c3ccccc23)cc1S(=O)(=O)NCC1CCCO1 (stereo not given),7.1,108.9,118.4,99.7
Cc1ccc(-c2nc3c(c(SCC(=O)Nc4cccc(C(=O)O)c4)n2)Cc2cccc(C)c2O3)cc1,-110.6,108.5,100.3,83.6
Cc1[nH]c(=O)c(C#N)cc1-c1ccc2nccn2c1,58.3,100.7,.,.
COC(=O)C1=C(O)/C(=C\c2cccc3ccccc23)N=C1C,.,107.2,102.7,96.6
O=C(NN1C(=O)c2ccccc2NC12CCCC2)c1ccccc1,5.3,.,109.0,93.0
